INS promoter inh: TRM-6 insulin promoter activity inhibition; TRM-6 cells (human fetal islet line), insulin promoter-eGFP reporter, imaging; reporter expression induced with tamoxifen; inhibition, % at 2 µM; actives 0.9% (n = 130,000); AID 1273;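 active means inhibition above the mean plus 3 SD, with well images judged a real hit on visual review, cut at about 60% in these data, passing the limit was not always enough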
PKD1 kinase inh: inhibitors of human PKD1 kinase | actives 0.056% (n = 200,000) | inhibition, %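 (about 10 µM by stock and volumes)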 | PKD1 kinase fluorescence polarization assay;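 active means inhibition of 50% or more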;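 further: controls were vehicle for no effect and a reference inhibitor for full effect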
Target sequence (Q15139 whole entry, looked up): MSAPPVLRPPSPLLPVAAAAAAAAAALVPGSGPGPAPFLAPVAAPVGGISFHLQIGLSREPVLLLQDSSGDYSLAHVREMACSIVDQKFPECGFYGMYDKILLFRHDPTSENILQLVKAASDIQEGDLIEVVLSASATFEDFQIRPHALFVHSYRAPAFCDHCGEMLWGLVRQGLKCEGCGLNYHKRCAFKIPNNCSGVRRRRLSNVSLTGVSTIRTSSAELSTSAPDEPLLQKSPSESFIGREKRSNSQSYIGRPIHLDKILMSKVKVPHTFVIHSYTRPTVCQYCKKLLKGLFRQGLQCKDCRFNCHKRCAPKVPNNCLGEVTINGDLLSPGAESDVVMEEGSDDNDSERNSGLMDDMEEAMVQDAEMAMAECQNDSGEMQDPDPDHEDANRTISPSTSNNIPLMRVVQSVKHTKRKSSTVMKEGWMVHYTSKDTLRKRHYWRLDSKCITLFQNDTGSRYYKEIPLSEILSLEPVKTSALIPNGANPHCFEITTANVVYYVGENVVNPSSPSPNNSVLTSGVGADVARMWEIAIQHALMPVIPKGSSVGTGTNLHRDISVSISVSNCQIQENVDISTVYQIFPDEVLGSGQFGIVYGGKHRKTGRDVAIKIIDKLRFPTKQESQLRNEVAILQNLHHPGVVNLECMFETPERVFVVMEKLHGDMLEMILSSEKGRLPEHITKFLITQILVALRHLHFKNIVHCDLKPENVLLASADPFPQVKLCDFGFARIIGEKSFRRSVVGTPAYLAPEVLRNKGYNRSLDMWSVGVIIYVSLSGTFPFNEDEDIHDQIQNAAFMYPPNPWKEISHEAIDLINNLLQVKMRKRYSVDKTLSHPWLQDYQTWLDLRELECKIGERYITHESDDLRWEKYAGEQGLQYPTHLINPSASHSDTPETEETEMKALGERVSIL
RGS16-Gao HTS: regulators of human RGS16-Galphao interaction. binding response (% of control), % at 10 µM. bead-based flow cytometry RGS16-Galphao binding, fluorescence; actives lie on both sides. actives 0.38% (n = 220,000);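 active means below 25% or above 175%, edge rows of some plates excepted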;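 further: Galphao activated by GDP with aluminum fluoride before binding; 100% = wells without compound and 0% = beads without RGS; some results beyond the cut were filed as inactive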
HSV replic up: increases HSV replication in cells; actives 0.005% (n = 220,000); maximum fold increase; HSV replication augmentation in cells, fold increase;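 active means peak rise of 1.5-fold or more in the series; tested in PC3 cells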;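 further: first round at 10 µM; read as green reporter fluorescence; hits show the peak of a series up to 25 µM; 1 = signal of infected wells without compound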
GALR2 agonist: agonists of human galanin receptor 2 (GALR2). GALR2-expressing cells, agonist activation read-out. activation, %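 (tested at 5 µM)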. actives 0.48% (n = 140,000). O43603;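 active means above mean plus 3 SD of all compounds, about 5% in these data, not always enough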;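 further: 0% = vehicle buffer wells and 100% = reference agonist at full effect; tested in CHO reporter cells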
INS promoter inh cell count: also measured in INS promoter inh; calls as there; normalized cell count, %; measured here: cell count, toxicity; reference of the scale not given here;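 cells exposed to compound for 48 h; stained nuclei by imaging scaled within each plate; lower means fewer cells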
HSV replic up primary fold: second read-out of HSV replic up, no call of its own (marks repeat the call); fold increase; compound at 10 µM; measured here: primary screen fold increase 10 uM; tested in PC3 cells;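 GFP signal in the first replicate; 1 = infected wells without compound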
* hit, by the source's call; i = inactive; nt = no result given.

SMILES	INS promoter inh	INS promoter inh cell count	PKD1 kinase inh	RGS16-Gao HTS	HSV replic up	HSV replic up primary fold	GALR2 agonist
CC1CCCCN1Cc1ccc(-c2nnn(CC(=O)NC3CCCCC3)n2)cc1 (centres undefined)	7	158	-5	112	i	1	-0.8
COc1ccccc1/C=N/NC(=S)NCc1ccco1	nt	nt	nt	97	i	0.89	nt
O=C(COC(=O)c1ccccn1)Nc1ccc2c(c1)OCO2	nt	nt	2	104	i	1.5	nt
Cc1nc(-c2ccc(Cl)cc2)sc1C1(C)CC(c2ccccc2F)=NO1 (centres undefined)	nt	nt	nt	76	i	0.73	nt
CCc1ccccc1N(CC(=O)O)S(C)(=O)=O	12	101	-14	101	i	0.93	-1.3
Cc1nc(-c2ccncc2)nc(NCCNc2ncccc2C(F)(F)F)c1Cl	nt	nt	nt	100	i	0.95	nt
COCCCNC(=O)CN(c1cccc(Cl)c1C)S(C)(=O)=O	-8	152	-11	106	i	1.1	0.1
C[C@H]1[C@H](C)CC[C@]2(C(=O)O)CC[C@]3(C)C(=CC[C@@H]4[C@@]5(C)CC[C@H](O)C(C)(C)[C@@H]5CC[C@]43C)[C@H]12	nt	nt	nt	95	i	0.96	nt
Cc1ccc(SCC(=O)NC(=O)Nc2ccc3c(c2)OCCO3)cc1C	-16	133	-6	110	i	1	0.2
Cc1ccc(NC(=O)NC(=S)NC(=O)c2ccccc2)cc1	nt	nt	-2	171	i	0.98	-0.1
CCOC(=O)Cn1c(=NC(=O)c2ccc([N+](=O)[O-])s2)sc2ccccc21	-24	74	-9	103	i	1.2	1.1
Cc1ccc2nc(NCC(=O)O)nc(-c3ccccc3)c2c1	-25	137	-7	104	i	1.1	-0.8
CCn1c(SCC(=O)c2ccccc2)nnc1-c1cnccn1	-8	152	-2	113	i	1	0.3
Cc1c(CCOC(=O)C23CC4CC(CC(C4)C2)C3)sc[n+]1Cc1ccccc1	-24	90	0	97	i	0.92	-0.5
COC(C[C@H](O)C[C@@H](O)[C@@H](C)OCc1ccccc1)OC	nt	nt	nt	106	i	0.9	nt
Cc1nnc(NC(=O)CN2C(=O)c3ccccc3S2(=O)=O)s1	7	127	4	87	i	0.96	-1.0
COc1ccc(CNC(=O)C2CCCN2CCc2ccccc2)cc1OC (centres undefined)	30	98	3	100	i	1.1	nt
COc1cc(Cl)c(C)cc1NC(=O)CSc1ccc(NC(C)=O)cc1	-7	123	18	66	i	0.97	-3.0
CC(NC(=O)Cn1cnc([N+](=O)[O-])n1)c1ccccc1 (centres undefined)	3	95	7	112	i	0.95	-3.2
CC(=O)c1ccccc1OCC(O)CN1CCN(C(c2ccccc2)c2ccccc2)CC1 (centres undefined)	-7	94	-11	99	i	0.71	0.3
CCCCNc1oc(-c2ccc(OC)cc2)nc1S(=O)(=O)c1ccccc1	-71	157	2	104	i	1.1	-2.2
O=C(Cn1cnc2ccccc21)Nc1ccc(SC(F)F)cc1	39	143	1	110	i	0.92	nt
COC(=O)C1=C(C)NC(C)=C(C(=O)OC)C1c1ccc2ccccc2n1	nt	nt	-6	101	i	1	-1.8
CCCCN(CC)Cc1ccc(CNC(=O)Nc2ccc(OCC)cc2)o1	-42	107	6	106	i	0.91	-2.3
O=C1CC(C(=O)N(CC2CCCO2)C(C(=O)NC2CCCCC2)c2ccncc2)CS1 (centres undefined)	-49	92	-6	101	i	1.3	-1.2
CCNC(=O)CCc1nc(-c2ccc(C)cc2)no1	nt	nt	nt	102	i	1.1	nt
O=C(O)c1ccc(S(=O)(=O)c2ccc3c(c2)C(=O)N(NC(=O)c2ccc(O)cc2)C3=O)cc1	nt	nt	-2	105	i	0.82	nt
CCCCc1ccc(N=N/C(C(=O)Nc2cc(OC)c(NC(C)=O)cc2OC)=C(/C)O)cc1	45	126	-3	99	i	0.99	0.5
O=C(NC1CCCCC1)C(c1ccncc1)N(CC1CCCO1)C(=O)C(F)(F)F (centres undefined)	90*	113*	-12	106	i	1.1	-0.3
O=S(=O)(NCc1ccncc1)c1ccc(S(=O)(=O)NCC2CCCO2)cc1 (centres undefined)	-10	91	-4	109	i	1	-1.8
Cc1ccc(NC(=S)c2ccc(N(C)C)cc2)cc1	-57	88	8	100	i	1	3.3
CCN(C(=O)c1nn(-c2ccc(OC)cc2)c(=O)c2c1c1ccccc1n2C)c1ccc(OC)cc1	0	109	3	100	i	0.89	nt
COc1cc2[nH]c(=O)n(Cc3ccc(C(=O)NC4CCN(Cc5ccccc5)CC4)cc3)c(=O)c2cc1OC	-49	68	-4	107	i	0.69	nt
CCOC(=O)c1c(C)c(C(=O)Nc2ccccc2)c(C)n1CC	nt	nt	-10	91	nt	nt	-1.7
COc1ccc(CN=Cc2c(C(F)(F)F)[nH][nH]c2=O)cc1	-7	106	10	104	i	0.99	-1.0
CN(C)S(=O)(=O)c1cccc(NC(=O)c2cncc(Br)c2)c1	8	79	-11	118	i	0.98	-4.7
O=C(/C=C/C(=O)NCc1cccs1)NCc1cccs1	nt	nt	nt	98	i	0.88	nt
Cc1ccc(Nc2nc(N)nc(CN3CCN(c4ccccc4)CC3)n2)cc1Cl	nt	nt	-4	101	i	0.7	-1.7
CCC(=O)N=c1sc2ccccc2n1-c1ccccc1	15	66	-1	104	i	0.9	nt
Cc1cccc(C)c1OCC(O)CN1CCCCC1 (centres undefined)	nt	nt	-2	99	i	0.9	nt

3 of these compounds in a different format.
Cc1ccc(Nc2nc(N)nc(CN3CCN(c4ccccc4)CC3)n2)cc1Cl
  INS promoter inh: nt	INS promoter inh cell count: nt	PKD1 kinase inh: -4	RGS16-Gao HTS: 101	HSV replic up: i	HSV replic up primary fold: 0.7	GALR2 agonist: -1.7
Cc1cccc(C)c1OCC(O)CN1CCCCC1 (centres undefined)
  INS promoter inh: nt	INS promoter inh cell count: nt	PKD1 kinase inh: -2	RGS16-Gao HTS: 99	HSV replic up: i	HSV replic up primary fold: 0.9	GALR2 agonist: nt
CN(C)S(=O)(=O)c1cccc(NC(=O)c2cncc(Br)c2)c1
  INS promoter inh: 8	INS promoter inh cell count: 79	PKD1 kinase inh: -11	RGS16-Gao HTS: 118	HSV replic up: i	HSV replic up primary fold: 0.98	GALR2 agonist: -4.7

Next section.
SMILES	INS promoter inh	INS promoter inh cell count	PKD1 kinase inh	RGS16-Gao HTS	HSV replic up	HSV replic up primary fold	GALR2 agonist
O=C1/C(=C/c2ccsc2)N2CCC1CC2	nt	nt	nt	98	i	1.1	nt
O=C(CCC1CC(=O)Nc2ccccc21)NCc1ccc(F)cc1 (centres undefined)	21	65	-5	95	i	1.1	-0.1
O=C(NCc1ccco1)C12CC3CC(C1)CC(C(=O)NCc1ccco1)(C3)C2	nt	nt	-13	98	i	0.88	-1.7
CCOC(=O)CNC(=O)CN1CCCN(S(=O)(=O)c2ccc(Br)s2)CC1	-6	82	-7	100	nt	nt	-0.9
O=C(NCc1ccccn1)c1cc(-c2ccccc2Cl)on1	-31	55	-1	102	i	1.1	-1.4
Cc1nnc(SCc2nnc(-c3cccs3)o2)n1C1CCCCC1	nt	nt	-4	97	i	0.92	nt
CCC(C)(C)n1nnnc1C(c1cc2cc3c(cc2[nH]c1=O)OCO3)N1CCN(C)CC1 (centres undefined)	18	120	19	94	i	0.91	-0.4
O=C(/C=C/c1cccc2ccccc12)N1CCOCC1	nt	nt	nt	99	i	1.1	nt
CCCCNC(=O)Cc1c(OC)ccc2cc(Br)ccc12	-31	126	-11	97	i	0.98	-1.2
CCN1CCCC1CNC(=O)C(=O)Nc1ccccc1 (centres undefined)	-15	126	1	103	nt	nt	nt
COc1cccc(-c2nnc(-c3ccc(C(F)(F)F)cc3)o2)c1OC	nt	nt	-5	99	i	1	-2.1
O=S(=O)(c1ccc2nc(COc3ccccc3)[nH]c2c1)N1CCOCC1	nt	nt	-6	100	i	0.8	-1.0
Cc1ccccc1CN1CCN(CC(=O)NCc2ccc3c(c2)OCO3)C1=O	nt	nt	-6	103	i	0.86	-0.3
CCc1nnc(NC(=O)CSc2nc3ccccc3o2)s1	-57	100	0	330	i	0.87	-1.1
COC(=O)[C@@H]1C[C@H]1[C@@H](NS(=O)(=O)c1ccccc1)c1ccccc1	-24	114	-3	97	i	1.1	-0.9
COc1ccc(/C(C#N)=C/c2ccccn2)cc1	nt	nt	nt	97	i	0.95	nt
c1cncc(C2Nc3ccccc3-c3nc4ccccc4n32)c1 (centres undefined)	32	121	3	97	i	0.79	-0.4
CCn1c(=O)c(=O)[nH]c2cc(C(=O)Nc3ccc(S(=O)(=O)N4CCCC4)cc3)ccc21	nt	nt	-4	93	i	0.84	-1.8
CCOC(=O)c1cc(-c2ccc(C)cc2)n(CC(=O)NCc2ccco2)c1C	nt	nt	-7	74	i	0.99	-2.4
COc1c(-c2ccc(O)cc2)oc2cc(O)cc(O)c2c1=O	nt	nt	nt	101	i	1	nt
Cc1noc(C)c1COc1ccc(C(=O)O)cc1	12	105	2	117	i	1	nt
CC(C)C1NC(=S)N(Cc2ccccc2)C1=O (centres undefined)	nt	nt	-2	101	i	1.2	-1.7
COc1cccc(-c2cc(C(=O)Nc3c(C)nn(Cc4ccccc4)c3C)no2)c1	38	121	-1	146	i	0.62	-0.9
O=C(Nc1nnc(SCc2ccc(F)cc2)s1)C1Cc2ccccc2CN1C(=O)c1ccco1 (centres undefined)	19	124	-6	109	i	0.9	-3.9
CCN(CC)S(=O)(=O)c1ccc2oc(C(=O)N3CCc4ccccc4C3)c(C)c2c1	-7	104	-6	111	i	0.88	-1.4
O=[N+]([O-])c1cc(-c2nnc(N3CCOCC3)c3ccccc23)ccc1N1CCOCC1	nt	nt	0	99	i	0.94	nt
O=C(CN(C(=O)c1ccccc1Cl)C1CCCCC1)Nc1ccc(Cl)c([N+](=O)[O-])c1	4	98	2	97	i	0.8	-3.5
COc1cc(C)c(Br)cc1S(=O)(=O)NCc1ccccc1	nt	nt	-3	103	i	0.95	-1.1
CCCCCn1c(SCCOCC)nc2c1c(=O)[nH]c(=O)n2C	nt	nt	-4	103	i	0.94	-1.3
CS(=O)(=O)N1CC2CCCN2c2cc(C(F)(F)F)ccc21 (centres undefined)	21	72	5	97	nt	nt	nt
COc1ccc(NC(=O)c2ccc(Cn3cc(Cl)cn3)cc2)cc1	20	80	0	102	i	1	nt
CCCOC(=O)Nc1nc(-c2ccc(C)cc2)c(C)s1	-36	155	10	108	i	0.88	nt
O=C(Nc1ncc(S(=O)(=O)c2ccc([N+](=O)[O-])cc2)s1)c1ccccc1F	nt	nt	nt	99	i	1	nt
C=C1CCN([C@H](C(=O)NCc2ccc(OC)cc2)C(C)C)S(=O)(=O)c2ccccc21	nt	nt	nt	103	i	0.97	nt
COc1ccc(C2C(C#N)=C(N)N(Nc3ccccc3)C3=C2C(=O)CC(C)(C)C3)cc1C (centres undefined)	nt	nt	-10	101	i	0.98	-0.3
CCn1c(Cc2ccc(OC)cc2)nnc1SCC(=O)Nc1nc2ccccc2s1	-39	73	-4	103	i	1	0.6
Cc1ccc(C(=O)Nc2ccc(C(=O)N3CCCCC3C)cc2)cc1 (centres undefined)	nt	nt	-5	105	i	0.96	nt
Cc1ccccc1Cn1nc(C)c(NC(=O)c2noc3c2CC(C(C)(C)C)CC3)c1C (centres undefined)	-7	120	5	136	i	0.93	-1.1
OCC1CCCN(C2CCN(Cc3nc(Cc4cccc(C(F)(F)F)c4)no3)CC2)C1 (centres undefined)	nt	nt	9	103	i	1	nt
COc1ccc(CCNC(=O)CN2CCCc3ccccc32)cc1OC	-14	51	-5	114	i	1	-2.4

High-throughput results (PubChem BioAssay)
